# MARV entry inh – blocks Marburg virus binding to or entry into cells; AID 540276; Marburg virus pseudotyped entry inhibition, cell reporter; control for the full effect not named in the record; about a third of the inactives were read at about 46 µM; Potency, µM (doses to about 37.8 µM), for the others: at the top dose activity change, negative = inhibition, hits mostly inhibitors; hit rate 1.8% among 300,000; active = well fitted inhibition curve with a large enough effect; inconclusive = small, poorly fitted or top-dose-only effect, or effect the other way; inactive = flat fitted curve, though single readings scatter; tested in HEK293 cells; about a fifth of its hits are not listed in these tables; further: on the % scale 0 is the no-effect control and ±100 the full control effect; luciferase read-out
# StopGo reporter – FMDV 2A StopGo reporter, luciferase signal; human cells with a luciferase reporter of 2A StopGo recoding; control for the full effect not named in the record; Potency, µM (top dose mostly 57.9 µM), for the others: top-dose signal change, negative = less light; hit rate 1.2% among 410,000; AID 1159524; active = well fitted falling curve with a large enough effect; inconclusive = small, poorly fitted or top-dose-only effect; inactive = no such curve, though single readings can be large or run the other way; tested in HEK293T cells; further: on the % scale 0 is the no-effect control and ±100 the full control effect; nearly all actives have a fitted effect of over 45% in size; luciferase light after 4 h
# RE007 growth inh – less growth of the S. pombe RE007 Vpr strain | S. pombe RE007 Vpr strain, BacTiter-Glo ATP luminescence, 24 h; control for the full effect not named in the record | Potency, µM (series often up to 92.2 µM), inactives show at the highest dose activity change, negative = less growth | hit rate 0.21% among 360,000 | AID 651644; active = well fitted falling curve with a large enough effect; inconclusive = small, poorly fitted or top-dose-only effect; inactive = no such curve, though single readings can be large or run the other way;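 further: on the % scale 0 is the no-effect control and ±100 the full control effect; nearly all actives have a fitted effect of over 50% in size; the assay follows cell death caused by Vpr and the record does not say whether a fall means rescue or toxicity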
#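 Fission yeast RE007 carrying one integrated HIV-1 vpr copy, seeded at OD 0.01 in PMG+AL medium with 23 nL pinned compound. Grown 24 h at 30 degrees; viability read by BacTiter-Glo luminescence after 5 min.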
# NS1 function inh – inhibitors of influenza NS1 protein function. S. cerevisiae slowed by influenza A NS1, growth recovery by OD600. Potency, µM (series often up to 46.1 µM), for inactives: at the highest dose activity, positive = more growth. hit rate 0.4% among 270,000; active means well fitted rising curve with a large enough effect; inconclusive means small, poorly fitted or top-dose-only effect; inactive means no such curve, though single readings can be large or run the other way; further: nearly all actives have a fitted effect of over 50% in size
#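 Recovery from NS1-induced slow growth read by OD600 in budding yeast switched to galactose assay medium (pH 6.0, -URA) at 1:100 dilution. Compound 23 nl per well; the matching strain lacking NS1 serves as control.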
# Lassa entry inh – inhibitors of Lassa virus binding or cell entry. Lassa virus pseudotype entry inhibition, cell reporter; control for the full effect not named in the record. Potency, µM (series often up to 37.9 µM), without a hit: at the highest dose activity change, negative = inhibition, most hits filed as inhibitors. hit rate 1.2% among 300,000; active means well fitted inhibition curve with a large enough effect; inconclusive means small, poorly fitted or top-dose-only effect, or effect the other way; inactive means flat fitted curve, though single readings scatter; tested in HEK293 cells; further: on the % scale 0 is the no-effect control and ±100 the full control effect; nearly all actives have a fitted effect of over 50% in size; luciferase read-out
# Cruzain inh noDet – blocks cruzain activity in detergent-free assay | purified cruzain, Z-FR-AMC fluorescence, no detergent | Potency, µM, inactives show max response, negative = inhibition, actives largely listed as inhibitors | hit rate 2.3% among 200,000 | AID 1476;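 further: plate controls were enzyme without inhibitor for no effect and buffer without enzyme for full effect; nearly all actives have a fitted effect of over 40% in size; top concentration of the series not given in the record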
# Target sequence (P25779 123-467 limits assumed): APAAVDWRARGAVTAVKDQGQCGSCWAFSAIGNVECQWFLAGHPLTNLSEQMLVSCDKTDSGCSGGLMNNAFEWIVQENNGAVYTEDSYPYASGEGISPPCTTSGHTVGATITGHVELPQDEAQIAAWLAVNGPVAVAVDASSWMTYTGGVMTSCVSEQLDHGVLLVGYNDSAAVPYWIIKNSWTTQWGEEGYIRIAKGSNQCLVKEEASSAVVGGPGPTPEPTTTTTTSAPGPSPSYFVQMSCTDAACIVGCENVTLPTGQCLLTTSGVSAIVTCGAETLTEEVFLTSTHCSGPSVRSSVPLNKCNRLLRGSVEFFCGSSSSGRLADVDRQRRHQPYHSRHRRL
#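 Purified cruzain at 1.5 nM, pre-incubated 15 min with compound at room temperature in 100 mM sodium acetate pH 5.5, 5 mM DTT, 0.00005% Triton X-100. Reaction started with 2 uM Z-FR-AMC; AMC fluorescence increase over 60 s gives rate.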
# SARS PLpro yeast – inhibitors of SARS-CoV papain-like protease in yeast. S. cerevisiae expressing SARS-CoV PLpro, growth rescue; control for the full effect not named in the record. Potency, µM (highest dose often 32.9 µM), inactives show at the highest dose activity, positive = growth rescue. AID 485353. hit rate 0.19% among 330,000; active means well fitted rising curve with a large enough effect; inconclusive means small, poorly fitted or top-dose-only effect; inactive means no such curve, though single readings can be large or run the other way; further: 0% is about no effect; nearly all actives have a fitted effect of over 55% in size; growth read by luminescence after 48 h
# Cruzain inh Det – blocks cruzain activity in presence of Triton detergent | purified cruzain, Z-FR-AMC fluorescence, 0.01% Triton | Potency, µM, inactives show max response, negative = inhibition, usual class: inhibitors | hit rate 0.43% among 200,000;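 further: plate controls were neutral wells for no effect and buffer without enzyme for full effect; nearly all actives have a fitted effect of over 40% in size; top concentration of the series not given in the record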
#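 In this qHTS format, compounds are incubated with 1.5 nM cruzain for 15 min at room temperature before 2 uM Z-FR-AMC is added. Release of AMC is followed at 360/450 nm, and progress is taken as the 60 s fluorescence difference.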
# Starred values were filed as active, the others as inactive; ? = inconclusive; · = no result given; & = joins results of further samples; [ ] = dose if it differs, or a comment. Unless noted, the call rests on the fitted dose curve; in most records, active means well fitted curve in the direction sought with a large enough effect; inconclusive means small, poorly fitted or top-dose-only effect, or another doubt; inactive means no such curve, though single readings can be large; an effect the other way counts as inactive or inconclusive. Potency means the concentration at half of the fitted maximal effect.
SMILES,MARV entry inh,StopGo reporter,RE007 growth inh,NS1 function inh,Lassa entry inh,Cruzain inh noDet,SARS PLpro yeast,Cruzain inh Det
CC1CCN(C(=S)c2ccccc2O)CC1,2%,20%,11%,-39%,2%,-12%,6%,-0.1%
CCOc1ccc(N(Cc2ccc(OC)c(OC)c2)C(=O)c2ccco2)cc1,·,-11%,-1%,0%,·,·,20%,·
CCN(CC)S(=O)(=O)c1ccc(NN=C2CCN(C)CC2)c([N+](=O)[O-])c1,-29%[46.1 µM],-22%,-15%,·,?,·,1%,·
O=C(O)C(Cc1ccc(F)cc1)c1ccccc1 (stereo not given),·,-4%,4%,-29%,·,·,-1%,·
COc1cc(CN(CC2CCCO2)C(=O)c2ccco2)cc(OC)c1OC (stereo not given),·,-17%,3%,1%,·,·,6%,·
O=C(COC(=O)Cc1ccc(Cl)cc1)NCc1ccco1,4%,-23%,7%,·,7%[46.1 µM],·,-2%,·
Cc1cc2cc(CNC(=O)c3ccc(S(=O)(=O)N4CCCCC4)cc3)ccc2[nH]1,·,?,18%,11µM*,·,?,2%,-11%
CCOC(=O)COc1ccc(-c2nnn(CC(=O)Nc3ccccc3)n2)cc1,-7%[46.1 µM],-3%,·,·,3%[46.1 µM],0%,·,1.2%
CCOc1ccccc1C(=O)N(CN1CCCC1=O)c1cccc(Cl)c1,-4%,-26%,2%,1%,1%,20%,2%,1.3%
c1ccc(Cc2cc[n+](Cc3ccccn3)cc2)cc1,-16%[46.1 µM],?,0%,-5%,-2%[46.1 µM],·,1%,·
O=C(NCCc1ccccc1)c1c2c(nc3ccccc13)C(=O)N(C1CCCCC1)C2,·,3%,·,·,11%[46.1 µM],0%,·,-2.6%
Cc1oc2ncn(CC(C)C)c(=O)c2c1C(=O)NCCCN1CCC(C)CC1,·,11%,·,·,21%[46.1 µM],7%,·,0.3%
CC(C)C(=O)N1CCN(c2ccc([N+](=O)[O-])cc2Cl)CC1,-4%,?,20%,-24%,8%,13%,-23%,-1.9%
COc1ccccc1C1CCN(C(=O)c2ccc(C(C)(C)C)cc2)CC1,?,?,-7%,-46%,?,·,-4%,·
CN1CCN(S(=O)C23CC4CC(CC(C4)C2)C3)CC1 (stereo not given),11%,-13%,-7%,-33%,-24%[14.3 µM],5%,3%,0.3%
COc1ccc(C2=NS(=O)(=O)N(C)C(C(=O)NC3CCCC3)=C2)cc1,·,-10%,-4%,18%,·,·,14%,·
Cc1cc(C)cc(NC(=O)CSc2oc(-c3ccco3)nc2S(=O)(=O)c2ccccc2)c1,-26%[46.1 µM],-27%,·,·,?,1%,·,-7.1%
COc1ccc(Nc2nc3ccc(C)cn3c(=O)c2/C=N/O)cc1,?,-7%,0%,-17%,?,·,-5%,·
COCC(C)NC(=O)C1CC(=O)N(c2ccc(C)cc2)C1 (stereo not given),7%,5%,11%,1%,13%,-8%,2%,7.9%
CC(=O)NC(CC(=O)Nc1nccs1)c1ccccc1 (stereo not given),·,-4%,8%,6%,·,·,-1%,·
COc1cccc(NC(=O)CN2C(=O)COc3ccc(Cl)cc32)c1,0%,-19%,10%,-10%,·,-2%,-2%,-4.4%
Cc1cc2cc(CCNC(=O)c3cccs3)c(=O)[nH]c2cc1C,-6%,5%,10%,-10%,?,-6%,3%,-7.1%
Cc1ccc(OCC(=O)NCCCNC(=O)c2ccncc2)cc1C,0%[46.1 µM],-4%,1%,7%,11%,·,1%,·
CCCn1c(=S)[nH]c2ccc(C(F)(F)F)cc21,-17%[46.1 µM],-25%,27%,·,-1%,·,-1%,·
CCOC(=O)CSc1nc(-c2ccccn2)ncc1OC,-4%[46.1 µM],1%,0%,·,13%[46.1 µM],·,1%,·
SMILES,MARV entry inh,StopGo reporter,RE007 growth inh,NS1 function inh,Lassa entry inh,Cruzain inh noDet,SARS PLpro yeast,Cruzain inh Det
CC1(c2ccc(Cl)cc2)CC(C)(C)N(C(=O)c2ccccc2)c2ccccc21 (stereo not given),18%[46.1 µM],?,·,·,2%[46.1 µM],?,·,-3.2%
COc1ccc(CNC(=O)CSc2nc3ccccc3nc2Cc2ccccc2OC)cc1,·,9%,·,·,28%[46.1 µM],-1%,·,1.5%
CCCn1nc(CC(=O)O)c2ccccc2c1=O,-4%,-11%,2%,-7%,-2%,-10%,?,-1.5%
CCN(CC)CCCNC(=O)C1CCN(C(=O)c2oc3cc4sc(N(C)C)nc4cc3c2C)CC1,·,-3%,-2%,-10%,·,·,-1%,·
CCOC(=O)c1cccc(NC(=O)CCS(=O)(=O)c2ccc3c(c2)CC(=O)N3C)c1,·,2%,·,·,?,-3%,·,0.9%
COc1ccc(-n2ccnc(NCCc3ccccc3)c2=O)cc1OC,·,-25%,·,·,0%[46.1 µM],9%,·,0.1%
O=C(NCCCN1CCOCC1)C(Sc1ccccc1)c1ccccc1 (stereo not given),-3%,0%,0%,-2%,14%,4%,4%,-11%
COC(=O)c1cc2ccccc2n1Cc1ccc(Cl)nc1,·,-14%,8%,-5%,·,·,1%,·
Cc1ccc(NC(=O)CC(NCCN2CCOCC2)C(=O)O)cc1Cl (stereo not given),9%,13%,-10%,-9%,9%,7%,-14%,-6.8%
Cc1ccc2c(c1)CCCN2N=O,?,-6%,7%,5%,?,-15%,?,0.6%
CCOC(=O)C1=C(C)NC(=O)CC1c1cc(OC)c(OC)cc1Br (stereo not given),20%[14.2 µM],-10%,5%,·,-20%,·,4%,·
Cc1oc2c(c1C(=O)Nc1ccccc1Br)C1=NCCN1C=N2,·,44%[activator],·,·,10%[46.1 µM],0%,·,-0.2%
CC(=O)c1ccc(NC(=O)C(=O)c2cn(CC(=O)N3CCCCC3)c3ccccc23)cc1,26%,-10%,-6%,8%,11%,10µM*,20%,2.6%
COc1cc2c(cc1OC)C(c1ccc(N(C)C)cc1)NCC2 (stereo not given),·,4%,0%,-4%,·,·,-1%,·
CCn1c(-c2ccc(N)cc2)nc2ccccc21,·,16%,-4%,0%,·,13%,1%,-2.9%
CCOC(=O)C1=C(CSc2nc3c(cc2C#N)CCC3)OC(N)=C(C#N)C1c1ccccc1 (stereo not given),4%&-8%,·,11%,-4%,2%,1%,1%,-1.9%
CCCNC(=O)C(C)n1c2ccccc2c2nc(=O)cc(C)n21 (stereo not given),·,·,·,-1%,·,-1%,-2%,-0.7%
COc1ccc(CCNC(=O)C/C(C)=N/NC(=O)c2ccc(N)cc2)cc1OC,21%,-23%,-13%,-1%,19%,-3%,0%,4.2%
O=[N+]([O-])c1cccc(Cl)c1CSc1ccccn1,1%[46.1 µM],-12%,-25%,-5%,-7%[46.1 µM],·,6%,·
CCN(CC)S(=O)(=O)c1ccc(NC(=O)CO/N=C(\N)c2ccccc2)cc1,-17%,-8%,8%,·,-24%[46.1 µM],·,2%,·
Cc1nc2ccccc2c(=O)n1/N=C/c1ccccc1Cl,?,6%,-3%,-30%,?,·,-5%,·
C=CCN1C(=O)CSC1=Nc1cccc(O)c1,12%,-4%,-4%,7%,-10%,-6%,-1%,9.2%
O=C(O)c1cncc(Br)c1,28%[46.1 µM],5%,1%,8%,6%[46.1 µM],·,0%,·
CCCNC(=O)c1nnsc1S(=O)c1ccc(Cl)cc1 (stereo not given),?,35µM*,3.5µM*,·,?,·,-31%,·
O=C(Nc1ccccc1C(=O)OCc1cc(=O)n2ccsc2n1)c1cccc(F)c1,·,2%,·,·,-2%[46.1 µM],10%,·,1.8%
SMILES,MARV entry inh,StopGo reporter,RE007 growth inh,NS1 function inh,Lassa entry inh,Cruzain inh noDet,SARS PLpro yeast,Cruzain inh Det
CCCC1NC(=S)N(C2CCCCC2)C1=O (stereo not given),-5%,-3%,-2%,6%,5%,8%,9%,-3.8%
COc1ccccc1Oc1ccc(S(=O)(=O)N2CCOCC2)cc1S(=O)(=O)N1CCOCC1,-2%&-2%,20%,-9%,-35%,17%,?,16%,-2.6%
CC(=O)c1ccc(N2CCN(S(=O)(=O)c3ccc4c5c3CC(=O)N5CC(C)S4)CC2)cc1 (stereo not given),·,14µM*,1%,21%,·,·,6%,·
COC(=O)/C(=C/c1c[nH]c2ccccc12)NC(C)=O,0%[46.1 µM],8%,7%,4%,22%,22%,7%,-7.5%
CN(C1(C)CCS(=O)(=O)C1)S(=O)(=O)c1cccc([N+](=O)[O-])c1 (stereo not given),14%[46.1 µM],2%,-17%,·,14%,·,-2%,·
Cc1ccc(O)c(NC(=S)NC(=O)C(C)C)c1,2%,21%,0%,-3%,4%,·,0%,·
COc1ccc(NS(=O)(=O)c2ccc(NC(=O)C3CCCO3)cc2)cc1 (stereo not given),?,-11%,4%,-5%,?,-5%,4%,-2.2%
Cc1ccc(S(=O)(=O)N2CCCC2C(=O)OCc2ccccc2)cc1 (stereo not given),?,-15%,0%,-2%,3%,-17%,-11%,-5.2%
CN(C(=O)c1ccc2c(c1)CCN2S(C)(=O)=O)c1ccccc1,-1%[46.1 µM],-10%,-16%,-2%,9%[46.1 µM],·,-1%,·
CC(=O)Nc1ccc(S(=O)(=O)c2ccc(C)cc2)cc1,0%[46.1 µM],14%,11%,-5%,?,·,-1%,·
O=C(NCc1cccnc1)/C(=C/c1ccco1)NC(=O)c1ccccc1,?,27%,0%,7%,9%,-4%,3%,-6.1%
Cc1nc(NC(=O)c2ccc3c(c2)OCCO3)ccc1Br,?,?,-26%,-28%,?,·,-17%,·
c1cncc(CNCCc2ccc3c(c2)OCO3)c1,·,4%,2%,3%,·,·,-1%,·
Cc1ccccc1C(=O)Nc1ccc(-c2nc3ccc(C(=O)c4ccccc4)cc3[nH]2)cc1,?,?,11%,-13%,?,13µM*,-8%,-1.9%
CC(=O)N1CCc2c(sc(NC(=O)C3COc4ccccc4O3)c2C(N)=O)C1 (stereo not given),1%[46.1 µM],8%,10%,-3%,-5%[46.1 µM],·,-2%,·
CCNC(=O)c1ccccc1NC(=O)C1CC(=O)N(C(C)C)C1 (stereo not given),·,-5%,2%,?,·,·,4%,·
